EPAC2 ant val: validation of human EPAC2 antagonists | hit rate 1.7% among 16,000 | EPAC2 Rap1B BODIPY-GDP exchange, fluorescence | AID 1645886 | Potency, µM (series often up to 112 µM), for inactives: at the highest dose activity, negative = inhibition, hits mostly inhibitors; active = well fitted inhibition curve with a large enough effect; inconclusive = small, poorly fitted or top-dose-only effect; inactive = no such curve, though single readings can be large or run the other way;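 note: 100% = activation by cAMP agonist control; nearly all actives have a fitted effect of over 40% in size; the record reuses the description of the EPAC1 agonist screen; inactives centre near -10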
Target sequence (Q8WZA2 whole entry, looked up): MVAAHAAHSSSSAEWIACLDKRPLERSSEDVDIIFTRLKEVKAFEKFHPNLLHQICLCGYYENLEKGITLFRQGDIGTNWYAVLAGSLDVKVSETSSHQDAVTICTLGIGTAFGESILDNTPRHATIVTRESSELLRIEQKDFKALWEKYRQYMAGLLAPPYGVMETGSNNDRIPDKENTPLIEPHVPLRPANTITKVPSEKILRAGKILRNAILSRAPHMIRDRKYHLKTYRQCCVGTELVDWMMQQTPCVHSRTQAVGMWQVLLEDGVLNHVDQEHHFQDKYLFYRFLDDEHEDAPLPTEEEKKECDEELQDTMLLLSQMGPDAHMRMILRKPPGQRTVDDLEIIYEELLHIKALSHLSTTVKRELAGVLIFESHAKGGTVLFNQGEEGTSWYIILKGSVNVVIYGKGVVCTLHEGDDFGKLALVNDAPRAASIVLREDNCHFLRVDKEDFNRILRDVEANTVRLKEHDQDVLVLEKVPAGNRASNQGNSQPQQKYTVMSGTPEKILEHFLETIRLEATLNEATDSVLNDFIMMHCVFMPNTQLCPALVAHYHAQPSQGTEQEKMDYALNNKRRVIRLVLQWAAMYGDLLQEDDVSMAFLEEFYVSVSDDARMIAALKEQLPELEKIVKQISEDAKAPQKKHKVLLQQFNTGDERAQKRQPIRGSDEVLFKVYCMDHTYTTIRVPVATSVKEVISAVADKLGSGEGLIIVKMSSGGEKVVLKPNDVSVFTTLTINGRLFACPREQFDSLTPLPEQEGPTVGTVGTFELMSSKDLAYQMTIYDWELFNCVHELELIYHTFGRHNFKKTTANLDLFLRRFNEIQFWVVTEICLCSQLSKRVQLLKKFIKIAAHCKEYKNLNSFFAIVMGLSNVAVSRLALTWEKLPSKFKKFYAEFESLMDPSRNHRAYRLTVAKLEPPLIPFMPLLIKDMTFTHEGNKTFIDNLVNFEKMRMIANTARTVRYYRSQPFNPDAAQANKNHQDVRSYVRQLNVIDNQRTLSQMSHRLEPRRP
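Normalized against a 6.5 mM cAMP agonist control, compounds were tested on 100 nM EPAC2 exchanging Rap1B-bound BODIPY-GDP (250 nM) for 50 uM GDP. Fluorescence drop (ex 480, em 540 nm) was tracked at room temperature over 30 min at 5-min intervals.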
* marks the source's active call; other numbers are inactive results; ? = inconclusive; & = joins results of further samples; [ ] = remark or other dose. Potency is the fitted concentration of half-maximal effect.

SMILES	EPAC2 ant val
c1cc2c(cc1[C@H]1OC[C@@H]3[C@H]1CO[C@H]3c1ccc3c(c1)OCO3)OCO2	-19%
CC(C)(C)[C@]1(O)C[C@@H]2OC(=O)C[C@@]23C(=O)O[C@@H]2OC(=O)[C@H](O)[C@]213	-3%
CC1OC(C)OC(C)O1 (stereo unspecified)	0%&-9%
COc1cc(C[C@@H](C)N)c(OC)cc1Br	6%[239 µM]
CCOC(=O)[C@]12Cc3cc(OC)ccc3[C@H]1N(Cc1ccccc1)C(=O)c1ccccc12	?
CCCCNC(C)(C)[P+](=O)O	10%
CCOP(=O)(OCC)O/C(=C/Cl)c1ccc(Cl)cc1Cl	?
CCCC1CCCCN1 (stereo unspecified)	18%
Oc1cc[c]([Hg][Cl])cc1	-11%&7%
N#CC1(N2CCCCC2)CCCCC1	-1%
C[C@]1(C(=O)O)CCC[C@]2(C)c3cc(O)ccc3CC[C@@H]12	-18%
CC(C)=CCOc1c2occc2cc2ccc(=O)oc12	-16%&-18%
COC(=O)C1=CO[C@@H](C)[C@@H]2CN3CCc4c([nH]c5cc(OC)ccc45)[C@@H]3C[C@H]12	62%[activator]
CC[C@@H](CO)NC(=O)[C@H]1C=C2c3cccc4c3c(cn4C)C[C@H]2N(C)C1	-12%
N[C@@H](Cn1oc(=O)[nH]c1=O)C(=O)O	-1%&0%&-26%

Entries above containing nitrogen in an aromatic ring (3):
SMILES	EPAC2 ant val
COC(=O)C1=CO[C@@H](C)[C@@H]2CN3CCc4c([nH]c5cc(OC)ccc45)[C@@H]3C[C@H]12	62%[activator]
CC[C@@H](CO)NC(=O)[C@H]1C=C2c3cccc4c3c(cn4C)C[C@H]2N(C)C1	-12%
N[C@@H](Cn1oc(=O)[nH]c1=O)C(=O)O	-1%&0%&-26%

Sorted by molar mass (low to high): part of the list above.
SMILES	EPAC2 ant val
N#CC1(N2CCCCC2)CCCCC1	-1%
c1cc2c(cc1[C@H]1OC[C@@H]3[C@H]1CO[C@H]3c1ccc3c(c1)OCO3)OCO2	-19%
COC(=O)C1=CO[C@@H](C)[C@@H]2CN3CCc4c([nH]c5cc(OC)ccc45)[C@@H]3C[C@H]12	62%[activator]

Next section.
SMILES	EPAC2 ant val
[O]=[Cd]	-10%
C[C@@H](Cc1cccc(C(F)(F)F)c1)NCCCc1ccccc1	?
O=C(O)[C@@H]1Cc2[nH]cnc2C(c2cccnc2)N1 (stereo partly specified)	-1%
CCCN1CCc2cccc3c2C1Cc1ccc(O)c(O)c1-3 (stereo unspecified)	5%
O=NN1CCCC1c1cccnc1 (stereo unspecified)	-18%
NN=C(N)N	?
CN1C2CCC1CC(C(=O)OC(CO)c1ccccc1)C2 (stereo unspecified)	1%
CCNc1nc(Cl)nc(NCC)n1	-22%
C=C(C)[C@H]1CN[C@H](C(=O)O)[C@@H]1CC(=O)O	-15%
NC(=O)c1cc(N2CC2)c([N+](=O)[O-])cc1[N+](=O)[O-]	7%
CCOC(=O)c1cncn1[C@H](C)c1ccccc1	-32%
CCCSc1cc(OC)c(CCN)cc1OC	13%[239 µM]
O=C(O)/C=C\CO	-3%
O=C(N[C@H]1CN2CCC1CC2)c1ccc(Cl)cc1	-6%

Looked up by structure from above, eight records:
SMILES	EPAC2 ant val
C[C@@H](Cc1cccc(C(F)(F)F)c1)NCCCc1ccccc1	?
[O]=[Cd]	-10%
C=C(C)[C@H]1CN[C@H](C(=O)O)[C@@H]1CC(=O)O	-15%
O=NN1CCCC1c1cccnc1 (stereo unspecified)	-18%
O=C(O)/C=C\CO	-3%
CN1C2CCC1CC(C(=O)OC(CO)c1ccccc1)C2 (stereo unspecified)	1%
CCNc1nc(Cl)nc(NCC)n1	-22%
CCCSc1cc(OC)c(CCN)cc1OC	13%[239 µM]

Screening results: PubChem BioAssay, National Center for Advancing Translational Sciences (NCATS)

Only part of the results is shown (hit frequency here may not be typical).
